Source: PubChem BioAssay
Yeast UUG start: modulators of yeast start codon fidelity, primary screen, whole organism, S. cerevisiae, single point, plate reader. AID 602363, 2012. S. cerevisiae UUG-firefly luciferase reporter, luminescence/redox ratio. hit rate 0.13% among 350,000. activity score, % at 18.7 µM;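 active = replicate mean at a twofold rise or more, about +100% in these data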;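 also: firefly luciferase made from a UUG start codon reports start codon fidelity; reporter light over untreated wells divided by growth signal over untreated wells; some hits fall short of that in this replicate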
Active calls of the source: *. Only part of the results is shown; rates above refer to the full screens.

Preview, four compounds:
Yeast UUG start | canonical_smiles
-9 | CCC(=O)N1C[C@@H]2[C@H](c3ccccc31)[C@@H](CO)N2C(=O)CC
-2 | CCN(C[C@H]1[C@H](c2ccc(C3=CCCC3)cc2)[C@H](CO)N1C(C)=O)C(C)=O
3 | CO[C@H]1CN(C)C(=O)c2ccc(NS(=O)(=O)c3ccccc3)cc2OC[C@@H](C)N(Cc2ccccn2)C[C@@H]1C
0 | CO[C@@H]1CN(C)C(=O)c2ccc(NC(=O)c3cc(C)on3)cc2OC[C@@H](C)NC[C@@H]1C

Main list, previewed entries included:
Yeast UUG start | canonical_smiles
-9 | CCC(=O)N1C[C@@H]2[C@H](c3ccccc31)[C@@H](CO)N2C(=O)CC
-2 | CCN(C[C@H]1[C@H](c2ccc(C3=CCCC3)cc2)[C@H](CO)N1C(C)=O)C(C)=O
3 | CO[C@H]1CN(C)C(=O)c2ccc(NS(=O)(=O)c3ccccc3)cc2OC[C@@H](C)N(Cc2ccccn2)C[C@@H]1C
0 | CO[C@@H]1CN(C)C(=O)c2ccc(NC(=O)c3cc(C)on3)cc2OC[C@@H](C)NC[C@@H]1C
5 | CCCNC(=O)N1[C@H](CNC(=O)CC)[C@H](c2ccc(C3=CCCC3)cc2)[C@@H]1CO
-29 | CN1c2ccc(Br)cc2[C@@H]2[C@@H](CCN2C(=O)C2CC2)[C@@H]1CO
29 | C[C@@H]1CN([C@H](C)CO)C(=O)c2cc(NC(=O)NC3CCCCC3)ccc2O[C@@H]1CN(C)Cc1ccc(Oc2ccccc2)cc1
2 | CN(C)C(=O)c1cccc(-c2ccc3c(c2)[C@@H]2[C@@H](CCN2Cc2ccccc2F)[C@H](CO)N3)c1
9 | COCCNC(=O)C[C@@H]1CC[C@H]2[C@@H](COC[C@@H](O)CN2S(=O)(=O)c2ccccc2C)O1
-12 | COCC#Cc1ccc([C@@H]2[C@@H](CO)N3CCCCN(S(=O)(=O)c4ccccc4C)C[C@@H]23)cc1
-11 | C[C@@H]1CN([C@H](C)CO)C(=O)Cc2cc(NS(=O)(=O)c3ccccc3)ccc2O[C@H]1CN(C)Cc1ccncc1
-5 | CN1CCN(C(=O)C[C@@H]2C[C@@H]3c4cc(NS(=O)(=O)c5ccc(F)cc5)ccc4O[C@@H]3[C@H](CO)O2)CC1
-11 | COc1ccccc1C#Cc1ccc([C@H]2[C@@H](CO)N3CCCCN(C(=O)C4CCCC4)C[C@H]23)cc1
23 | Cc1ccc(S(=O)(=O)Nc2cccc3c2O[C@H](CN(C)CC2CCCCC2)[C@@H](C)CN([C@@H](C)CO)C3=O)cc1
-5 | CCC(=O)Nc1ccc2c(c1)OC[C@@H](C)N(Cc1cccnc1)C[C@H](C)[C@H](OC)CN(C)C2=O
9 | COc1ccc(NC(=O)N(C)C[C@@H]2Oc3ccc(NS(=O)(=O)c4cn(C)cn4)cc3C(=O)N([C@@H](C)CO)C[C@@H]2C)cc1
1 | Cc1ccccc1-c1ccc([C@H]2[C@@H](CO)N3CCCCN(S(C)(=O)=O)C[C@H]23)cc1
7 | CCCC(=O)Nc1ccc2c(c1)OC[C@@H](C)N(C(=O)c1ccccn1)C[C@@H](C)[C@H](OC)CN(C)C2=O
42 | COc1ccc(NC(=O)N(C)C[C@H]2Oc3ccc(NC(=O)NC(C)C)cc3C(=O)N([C@@H](C)CO)C[C@@H]2C)cc1
25 | C[C@H]1CN([C@@H](C)CO)C(=O)c2cc(NC(=O)Cc3cn(C)c4ccccc34)ccc2O[C@@H]1CN(C)S(=O)(=O)c1cn(C)cn1
27 | Cc1ccc(S(=O)(=O)N(C)C[C@H]2Oc3ccc(NC(=O)CCCN(C)C)cc3CC(=O)N([C@H](C)CO)C[C@@H]2C)cc1
3 | CN1c2ccc(-c3ccc(F)cc3)cc2[C@H]2[C@H](CCN2C(=O)Cc2cccnc2)[C@H]1CO
5 | C[C@H]1CN([C@@H](C)CO)C(=O)Cc2cc(NC(=O)NC3CCCCC3)ccc2O[C@H]1CN(C)Cc1ccc2c(c1)OCO2
-1 | COc1ccc(CN(C)C[C@@H]2OCc3cn(nn3)CCCC(=O)N([C@@H](C)CO)C[C@H]2C)cc1
-6 | CN1[C@@H]2CN(C(=O)Nc3cc(F)ccc3F)c3ccccc3[C@@H]2[C@@H]1CO
6 | Cn1cnc(S(=O)(=O)N2CCCCN3[C@@H](CO)[C@H](c4ccc(C#CC5CC5)cc4)[C@@H]3C2)c1
9 | C[C@@H]1CN([C@H](C)CO)C(=O)c2ccccc2-c2ccccc2CO[C@H]1CN(C)S(=O)(=O)c1ccc(C#N)cc1
2 | Cc1noc(C)c1S(=O)(=O)N(C)C[C@@H]1Oc2c(NC(=O)c3ccc(-c4nccs4)cc3)cccc2C(=O)N([C@@H](C)CO)C[C@@H]1C
7 | COc1ccccc1C#Cc1ccc([C@H]2[C@@H](CO)N3CCCCN(S(C)(=O)=O)C[C@H]23)cc1
-9 | COCC#Cc1ccc([C@@H]2[C@H](CO)N3CCCCN(S(=O)(=O)c4ccc(OC)cc4)C[C@@H]23)cc1

Next section:
Yeast UUG start | canonical_smiles
1 | C[C@@H]1CN([C@H](C)CO)C(=O)c2cc(NC(=O)Cc3cn(C)c4ccccc34)ccc2O[C@@H]1CN(C)S(=O)(=O)c1cn(C)cn1
-20 | CN1c2ccc(C#Cc3cccnc3)cc2[C@@H]2[C@@H](CCN2S(=O)(=O)c2ccccc2)[C@H]1CO
30 | COc1ccccc1CN1[C@H](CO)[C@H]2c3ccccc3N(C(=O)c3cccnc3)C[C@H]21
-10 | CN(C[C@H]1[C@@H](c2ccccc2)[C@H](CO)N1Cc1ccccn1)S(C)(=O)=O
33 | CCCNC(=O)N1[C@H](CN(C)C(C)=O)[C@@H](c2ccc(C3=CCCC3)cc2)[C@@H]1CO
-3 | COc1ccc(S(=O)(=O)N2CCCCN3[C@H](CO)[C@H](c4ccc(C5=CCCCC5)cc4)[C@H]3C2)cc1
-5 | CC(=O)NC[C@@H]1[C@@H](c2ccccc2)[C@H](CO)N1C(=O)Cc1cccnc1
6 | O=C(C[C@@H]1CC[C@H]2[C@@H](COC[C@H](O)CN2C(=O)Nc2cccc(F)c2)O1)NCCCN1CCOCC1
-3 | O=C(c1ccccc1)N1C[C@@H]2[C@H](c3ccccc31)[C@@H](CO)N2Cc1cc(F)ccc1F
14 | C[C@@H](NC(=O)C[C@H]1C[C@@H]2c3cc(NC(=O)C4CCC4)ccc3O[C@@H]2[C@@H](CO)O1)c1ccccc1
21 | C[C@H](CO)N1C[C@H](C)[C@@H](CN(C)C(=O)Nc2ccc3c(c2)OCO3)Oc2c(NC(=O)c3ccc(-c4nccs4)cc3)cccc2C1=O
0 | O=C(Nc1ccc2c(c1)[C@H]1C[C@H](CC(=O)N3CCOCC3)O[C@H](CO)[C@H]1O2)NC1CCCC1
-14 | CO[C@@H]1CN(C)C(=O)c2cc(NC(=O)C3CC3)ccc2OC[C@@H](C)N(C(=O)CN(C)C)C[C@@H]1C
0 | CC(=O)N1CC[C@H]2[C@@H]1c1cc(-c3ccccc3)ccc1N(C)[C@H]2CO
-2 | CCCNC(=O)N1C[C@H]2[C@@H](c3ccccc31)[C@@H](CO)N2Cc1ccc2c(c1)OCO2
6 | C[C@@H]1CN([C@H](C)CO)C(=O)c2cccc(NS(=O)(=O)c3ccc(Cl)cc3)c2O[C@H]1CN(C)C(=O)NC1CCCCC1
5 | CCCN1C[C@H](C)[C@@H](OC)CN(C)C(=O)c2ccc(NC(=O)c3cccc(F)c3)cc2OC[C@@H]1C
11 | CCCNC(=O)N1C[C@@H]2[C@H](c3ccccc31)[C@H](CO)N2CC1CCCC1
-11 | Cc1noc(C)c1S(=O)(=O)N(C)C[C@@H]1Oc2c(NC(=O)c3nc4ccccc4s3)cccc2C(=O)N([C@@H](C)CO)C[C@@H]1C
7 | CO[C@@H]1CN(C)C(=O)c2cc(NC(=O)c3ccccc3)ccc2OC[C@@H](C)N(C)C[C@H]1C
6 | C[C@H](CO)N1C[C@H](C)[C@H](CN(C)S(=O)(=O)c2cccs2)Oc2c(NC(=O)C3CCOCC3)cccc2C1=O
-7 | Cc1ccc(-c2ccc([C@@H]3[C@@H](CO)N4CCCCN(S(=O)(=O)c5ccccc5C)C[C@H]34)cc2)cc1
8 | O=C(C1CC1)N1CCCCN2[C@H](C1)[C@@H](c1ccc(C#CC3(O)CCCC3)cc1)[C@@H]2CO
27 | C[C@H](O)C#Cc1ccc([C@@H]2[C@@H](CO)N3CCCCN(S(=O)(=O)c4ccccc4)C[C@H]23)cc1
5 | COc1ccc(CN(C)C[C@@H]2Oc3c(NC(=O)C4CCOCC4)cccc3C(=O)N([C@H](C)CO)C[C@H]2C)cc1
16 | CN(C)CC#Cc1ccc([C@H]2[C@H]3CN(C(=O)Nc4ccccc4F)CCCCN3[C@H]2CO)cc1
-18 | COc1ccccc1CNC(=O)C[C@H]1CC[C@@H]2[C@H](COC[C@@H](O)CN2C(=O)Nc2ccc(C(F)(F)F)cc2)O1
2 | CN1c2ccc(Br)cc2[C@H]2[C@H](CCN2C(=O)CN2CCOCC2)[C@H]1CO
-10 | C[C@H]1CN([C@@H](C)CO)C(=O)Cc2cc(NC(=O)c3ccncc3)ccc2O[C@@H]1CN(C)C(=O)Nc1ccc(F)cc1
-4 | C[C@H]1CN([C@@H](C)CO)C(=O)c2cccc(NC(=O)C3CCCCC3)c2O[C@H]1CN(C)C(=O)Nc1ccc2c(c1)OCO2

Following part:
Yeast UUG start | canonical_smiles
0 | CN(C[C@H]1[C@H](c2ccccc2)[C@@H](CO)N1Cc1ccccn1)S(C)(=O)=O
-6 | CN1c2ccc(C#Cc3cccnc3)cc2[C@H]2[C@H](CCN2S(=O)(=O)c2cccc(F)c2)[C@H]1CO
-13 | COc1ccccc1-c1ccc2c(c1)[C@@H]1[C@@H](CCN1C(=O)C1CCCCC1)[C@@H](CO)N2
20 | CCC(=O)N1[C@H](CO)[C@H](c2ccccc2)[C@@H]1CN(C(C)C)S(C)(=O)=O
-8 | CN1c2ccc(-c3ccccc3)cc2[C@@H]2[C@@H](CCN2C(=O)c2ccc3c(c2)OCO3)[C@H]1CO
-7 | N#Cc1cccc(-c2ccc3c(c2)[C@@H]2[C@@H](CCN2C(=O)CN2CCOCC2)[C@@H](CO)N3)c1
0 | O=S(=O)(c1ccc(F)cc1)N1CC[C@@H]2[C@H]1c1cc(Br)ccc1N[C@@H]2CO
-5 | CCC(=O)N1[C@H](CO)[C@H]2c3ccccc3N(C(=O)Nc3ccc(Cl)cc3)C[C@H]21
0 | CCC(=O)Nc1ccc2c(c1)C(=O)N(C)C[C@@H](OC)[C@H](C)CN(C(=O)c1ccccn1)[C@@H](C)CO2
5 | Cc1ccc(S(=O)(=O)Nc2ccc3c(c2)CC(=O)N([C@@H](C)CO)C[C@H](C)[C@@H](CN(C)C(=O)NC2CCCCC2)O3)cc1
24 | CC(C)NC(=O)N1CCCCN2[C@H](CO)[C@H](c3ccc(C#CC4CC4)cc3)[C@@H]2C1
7 | COc1ccccc1C#Cc1ccc([C@H]2[C@H]3CN(S(C)(=O)=O)CCCCN3[C@H]2CO)cc1
-6 | O=S(=O)(c1cccs1)N1CCCCN2[C@H](C1)[C@H](c1ccc(-c3ccccc3)cc1)[C@@H]2CO
4 | C[C@@H]1CN([C@H](C)CO)C(=O)c2cccc(NS(=O)(=O)c3ccc(Cl)cc3)c2O[C@H]1CN(C)Cc1ccc(Oc2ccccc2)cc1
-12 | C/C=C/c1ccc([C@H]2[C@H](CO)N(C(C)=O)[C@H]2CN(C)S(C)(=O)=O)cc1
-4 | COCC(=O)N(C[C@H]1N[C@H](CO)[C@@H]1c1ccc(-c2cccnc2)cc1)C(C)C
2 | C[C@H](CO)N1C[C@H](C)[C@H](CN(C)C)Oc2ccc(NC(=O)NC3CCCCC3)cc2CC1=O
-17 | CCS(=O)(=O)Nc1ccc2c(c1)C(=O)N(C)[C@@H]1CC[C@@H](CC(=O)NCCCN3CCOCC3)O[C@@H]1CO2
-4 | C[C@@H]1CN([C@@H](C)CO)C(=O)c2cccc(NC(=O)Nc3ccc(C(F)(F)F)cc3)c2O[C@H]1CN(C)C
1 | Cc1noc(C)c1NC(=O)Nc1cccc2c1O[C@@H](CN(C)S(=O)(=O)c1ccc(F)cc1)[C@@H](C)CN([C@H](C)CO)C2=O
13 | CN(C)CC#Cc1ccc([C@@H]2[C@H](CO)N3CCCCN(C(=O)Nc4cc(F)ccc4F)C[C@@H]23)cc1
1 | COc1ccc(S(=O)(=O)N(C)C[C@@H]2OCc3ccccc3-c3c(n(C)c4ccccc34)C(=O)N([C@@H](C)CO)C[C@@H]2C)cc1
13 | C[C@@H]1CN([C@@H](C)CO)C(=O)c2cccc(NC(=O)Nc3ccc(C(F)(F)F)cc3)c2O[C@@H]1CN(C)S(C)(=O)=O
-15 | O=C(NC[C@@H]1N[C@@H](CO)[C@H]1c1ccc(-c2ccccc2F)cc1)c1ccccc1
-2 | C[C@H](CO)N1C[C@H](C)[C@H](CN(C)Cc2ccc(C(F)(F)F)cc2)Oc2ccc(NC(=O)CCC(F)(F)F)cc2CC1=O

In the list so far, 2 contain a cyano group:
Yeast UUG start | canonical_smiles
9 | C[C@@H]1CN([C@H](C)CO)C(=O)c2ccccc2-c2ccccc2CO[C@H]1CN(C)S(=O)(=O)c1ccc(C#N)cc1
-7 | N#Cc1cccc(-c2ccc3c(c2)[C@@H]2[C@@H](CCN2C(=O)CN2CCOCC2)[C@@H](CO)N3)c1

Rewritten field by field: part of the list above.
Molecule: CCCNC(=O)N1[C@H](CNC(=O)CC)[C@H](c2ccc(C3=CCCC3)cc2)[C@@H]1CO
  Yeast UUG start: 5

Molecule: C[C@@H]1CN([C@@H](C)CO)C(=O)c2cccc(NC(=O)Nc3ccc(C(F)(F)F)cc3)c2O[C@H]1CN(C)C
  Yeast UUG start: -4
